# Anthrax LT inh – anthrax lethal toxin internalization inhibition. Potency, µM (series often up to 40 µM), for inactives: at the highest dose activity change, negative = inhibition, hits mostly inhibitors. Cells, anthrax lethal toxin internalization, FRET ratio (460/530). 70,000 tested, 0.67% active. AID 912; active = well fitted falling ratio curve with the 530 nm signal flat; inconclusive = other ratio curves, or a change in one channel alone; inactive = flat curves in the ratio and both channels; the % refers to the ratio; note: % is set by controls: 0 for no effect and ±100 for the full control effect; nearly all actives have a fitted effect of over 50% in size; tested in ME-180 cells; beta-lactamase reporter
# Prx2 Sm inh – inhibitors of Schistosoma mansoni peroxiredoxin 2 | S. mansoni Prx2 activity coupled to TGR/GSH (TGR is thioredoxin glutathione reductase), NADPH fluorescence loss, qHTS; some inactives read as strong as hits | Potency, µM | 65,000 tested, 0.07% active | AID 448; active means full or partial inhibition curve with a strong effect at the top dose; inconclusive means weaker partial or single-point curve; inactive means no accepted curve; note: series up to 57 µM; many of its hits are not listed in these tables
#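 Prx2 activity was followed as the loss of NADPH fluorescence (ex 365/em 450 nm), read every 30 sec for 8 min after H2O2 start. The enzyme mix (50 nM Prx2, 25 nM TGR, GSH, NADPH; pH 7.4 phosphate buffer) was incubated with compound for 15 min at room temperature first.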
# An asterisk follows results filed as active; i = inactive; ? = inconclusive; / = not tested or not shown; & = joins results of further samples; [ ] = dose if it differs, or a comment. Potency is the fitted concentration of half-maximal effect. Some of the compounds tested, so the mix of outcomes need not match the whole.
SMILES,Anthrax LT inh,Prx2 Sm inh
COc1cc(-c2nnc(-c3ccc(S(=O)(=O)c4ccccc4)cc3)o2)cc(OC)c1OC,-5%,>57
Cc1cccc(N=C(N2CCOCC2)P(=O)(N2CCOCC2)N2CCOCC2)c1,-9%,>57
O=C(Nc1c(Cl)cccc1Cl)C1CCC1,/,>57
CC(C)(C)NS(=O)(=O)c1ccc2nc(NC(=O)Cc3cccs3)sc2c1,?,>57
COC1=CC(=O)O[C@@H](/C=C/c2ccccc2)C1,-14%,/
COc1ccccc1-n1c(=O)oc2ccc(Cl)cc2c1=O,?,>57
O=C(Cn1cccc1)N1CCN(C(c2ccccc2)c2ccccc2)CC1,21%,>57
CCOc1cccc2cc(-c3nnc(NCc4ccco4)s3)c(=O)oc12,?,?
CC1CCCCN1C(=O)CN1C(=O)CN(C)C(=O)c2ccccc21 (configuration not stated),-8%,>57
CCN1CCN(CCNC(=O)c2ccc(CS(=O)(=O)c3ccccc3C)o2)CC1,-9%,>57
O=C(NCc1ccc(F)cc1)C1CCN(S(=O)(=O)N2CCC3(CC2)OCCO3)CC1,7%,>57
CSC1=N/C(=C\c2ccccc2F)C(=O)S1,-12%,>57
COC(=O)[C@H]1C(=O)[C@H](C(=O)OC)[C@@H]2CC[C@H]1N2C,-1%[8 µM],>11
NCCSC(c1ccccc1)c1ccccc1,6%[8 µM],>57
O=C(C1CCC(C(=O)N2CCCC2)CC1)N1CCCC1 (configuration not stated),15%,>57

# Structural class: the entries above with an aryl methoxy group (2)
SMILES,Anthrax LT inh,Prx2 Sm inh
COc1cc(-c2nnc(-c3ccc(S(=O)(=O)c4ccccc4)cc3)o2)cc(OC)c1OC,-5%,>57
COc1ccccc1-n1c(=O)oc2ccc(Cl)cc2c1=O,?,>57

# The list continues:
SMILES,Anthrax LT inh,Prx2 Sm inh
CCn1cc(C(=O)N=c2sc3ccccc3n2C)c(=O)c2ccc(C)nc21,3%,>57
CN(C)[C@@H]1C(=O)C(C(N)=O)=C(O)[C@]2(O)C(=O)C3=C(O)c4c(O)cccc4[C@@](C)(O)[C@@H]3C[C@@H]12,?,>57
Cc1ccc(SCCNC(=O)C(CO)(CO)CO)cc1,-5%,/
CCOc1ccc2nc(N3CCCN(C(=O)Nc4ccccc4C)CC3)c(C#N)cc2c1,?,>57
O=C(CSc1ncnc2c1oc1ccccc12)c1cccs1,?,>57
COc1cc(OC)cc(C(=O)NCCSCc2ccco2)c1,-7%,>57
O=C(COC(=O)CSc1nnc(-c2ccc(Cl)cc2)o1)NCc1ccc2c(c1)OCO2,-4%,>57
CC12CCC(C(=O)NCCCn3ccnc3)(OC1=O)C2(C)C (configuration not stated),9%,>57
COc1ccc(CCNC(=O)c2cc3ccccn3n2)c(OC)c1OC,-3%,>57
COC(=O)C1CCN(S(C)(=O)=O)CC1,10%,>57
NC(=O)c1cc2ccc(O)cc2oc1=NCc1ccccc1,?,i
Cc1ccc(OCC(O)CN2CCN(CC(O)COC(C)C)CC2)c(C(C)(C)C)c1 (configuration not stated),-15%,>57
Nc1nc(N)c(CCCCc2ccccc2)c(N)n1,-4%[8 µM],>57
Cc1cccc2cc(CN(CCN3CCOCC3)C(=O)Nc3ccccc3F)c(=O)[nH]c12,-20%,>57
COc1cccc(Cn2nnc(C(=O)Nc3ccc(C)cc3)c2N)c1,1%,>57
COC(=O)c1oc2ccc(Br)cc2c1NC(=O)CCCN1C(=O)c2ccccc2C1=O,?,>57
COc1cc(C2=NOC(C(=O)N3CCCCCC3)C2)cc(OC)c1OC (configuration not stated),-5%,>57
c1ccc(COc2nsnc2N2CCOCC2)cc1,-10%,>57
COC(=O)C1Cc2c([nH]c3ccccc23)CN1 (configuration not stated),8%,>57
COc1ccccc1-n1cnc2cc(NCc3ccco3)ccc21,/,>57
COc1ccc(N2C(=O)CC(N3CCC(C(N)=O)CC3)C2=O)cc1 (configuration not stated),-17%,>57
O=c1c2cc3c(cc2[nH]c(=S)n1Cc1ccco1)OCO3,11%,>57
O=C(NCCN1CCN(C(=O)c2cccs2)CC1)c1cccs1,6%,>57
CCOC(=O)c1ccc(NC(=O)CN2CCN(CCN=CC3=C(O)CC(C)(C)CC3=O)CC2)cc1,4%,>57
CCCS(=O)(=O)c1c(S(=O)(=O)CCC)c2cnccn2c1C(=O)c1ccc(F)cc1,-4%,>57
Cc1nc2sc(C)c(C)c2c(=O)[nH]1,6%,>57
O=S(=O)(c1ccc(Cl)cc1)c1ccc(Cl)cc1,?,/
O=c1cc(-c2ccccc2)[nH]c2ccccc12,-10%,>57
CCSc1ccccc1C(=O)N1CCN(Cc2ccc3c(c2)OCO3)CC1,/,>57
CCC/C=C(\CCC)C(NC(=O)c1ccc(C(=O)OC)cc1)c1ccc(C(=O)OC)cc1 (configuration not stated),-12%,>57
O=C(NCC1CCCO1)C1CCC(CNS(=O)(=O)c2ccccc2)CC1 (configuration not stated),2%,>57
COC(=O)C1=C(C)N(Cc2ccccc2)C2=C3C(=O)OCCC3[C@@](O)(C(=O)OC)C(=O)N2C1c1ccccc1 (some centres not stated),-1%[8 µM],/
COc1ccc(-c2nc(=S)c3c(n2CCN2CCOCC2)CC(C)(C)OC3)cc1,-16%,>57
COCCn1c(C)cc(C(=O)CSc2ncn[nH]2)c1C,11%,>57
COc1cccc(NC(=O)CSc2nnc(CNC(=O)c3ccccc3)n2C)c1,6%,>57
O=C1/C(=C/Nc2ccc3c(c2)OCO3)CCc2ccccc21,7.9µM*,/
COc1cc2c(C(=O)NCCCN3CCN(c4cccc(Cl)c4)CC3)cn(C)c(=O)c2cc1OC,1%,>57
O=c1c(-c2cccc(F)c2)nc2cncnc2n1Cc1ccccc1,?,>57
CCOC(=O)N1CCN(c2cc(C)c(C(C)=O)cc2F)CC1,0%,>57
CC(C)(C)Sc1ccc(N)nc1,?,>57
Cc1ccc(-n2cccc2C(=S)N=P(N(C)C)(N(C)C)N(C)C)cc1,3%,>57
CCOc1ccc2nc(N3CCC(C(=O)Nc4nnc(CC)s4)CC3)sc2c1,?,>57
O=C1c2ccccc2-c2onc3ccc(NCCCn4ccnc4)c1c23,?,>57
COc1ccc(NC(=O)CCCC(=O)OCC(F)(F)C(F)F)cc1,-3%,/
CCOc1cc(C(=O)CSc2nnc(CNc3ccc(Cl)cc3)o2)ccc1NC(=O)CC,-15%,>57
COc1ncc2ncc(=O)n(CCC#N)c2n1,-6%,>57
CCc1cc2c(=O)c(-c3cscn3)coc2cc1OC,-8%,>57
Cc1ccc2cc(C)c3nnc(SCC(=O)NCc4ccco4)n3c2c1,-2%,>57
COc1ccc(C(=O)Nc2c(F)c(F)c(F)c(F)c2F)c(OC)c1,-3%,>57
CSC1=NCCN1C(=O)COc1ccc2ccccc2c1,1%,>57
COCCNC(=O)CS(=O)(=O)Cc1nc(-c2ccc(C)cc2)oc1C,-1%,>57
CN1[C@@H]2CC[C@H]1CC(OC(c1ccccc1)c1ccccc1)C2 (some centres not stated),?,>57&>57
O=C1Nc2ccc(S(=O)(=O)N3CCCC3)c3ccc(S(=O)(=O)N4CCCC4)c1c23,-8%,>57
COc1ccc(OC)c(S(=O)(=O)Nc2ccccc2C(=O)O)c1,-7%,>57
Cc1nnc(NC(=O)CSc2cn(CCNC(=O)c3ccccc3)c3ccccc23)s1,3%,>57
Cc1nnc(SCC(=O)N(C(C)C)C(C)C)nc1C,-8%,>57
CCCn1nnnc1SCC(=O)NCc1ccc2c(c1)OCO2,17%,>57
Cc1noc(C)c1C(=O)N1CCC2(CCCN(c3ccccn3)C2)CC1,-13%,>57
COc1ccccc1Cc1nc(-c2ccc(C)cc2)no1,-12%,>57
CCOC(=O)c1ccc(CSc2nnc(-c3ccncc3)n2N)cc1,0%,>57

# (next part)
SMILES,Anthrax LT inh,Prx2 Sm inh
Cn1c(=O)n(CCc2ccccc2)c(=O)c2c1nc1n2CCCN1CCc1ccccc1,?,>57
N=C1C(c2ccc(Br)cc2)=C(O)C2CCc3ccccc3N12 (configuration not stated),2%,>57
CO[C@@H]1COC(=O)CCC[C@@H](C)[C@H](OC)COC(=O)[C@H](Cc2ccccc2)NC(=O)C/C=C\[C@H]1C,0%[8 µM],/
C=C(C)Cn1c(C(C)NC(=O)CCC)nc2ccccc21 (configuration not stated),-6%,>57
Cc1cc(C(=O)COC(=O)c2csc3c2CCCC3)c(C)n1C,4%,>57
COc1ccc(CCC(=O)Nc2ccc(-c3noc(-c4ccc(OC)c(OC)c4)n3)cc2)cc1,?,>57
Cc1nn(Cc2ccccc2)c(C)c1NC(=O)c1cc2nc(-c3ccco3)cc(C(F)(F)F)n2n1,2%,>57
COc1ccc(/C=N/n2c(SC)nnc2-c2ccccc2)c(OC)c1OC,-10%,/
CCC(c1nnnn1C1CCCC1)N(Cc1cccs1)Cc1cc2cccc(C)c2[nH]c1=O (configuration not stated),-9%,>57
CCOC(=O)c1cncc(NC(=O)c2ccccc2)c1,?,>57
O=C(CCCn1c(SCC(=O)c2ccc(Cl)cc2)nc2ccccc2c1=O)NCc1ccco1,/,>57
N#Cc1cccc(C(c2nnnn2CCc2ccccc2)N2CCN(C3CCCCC3)CC2)c1 (configuration not stated),-6%,>57
COc1ccccc1C1(O)CC2CCC(C1)N2S(=O)(=O)c1ccc(C(C)=O)cc1 (configuration not stated),-7%,>57
CCOc1ccccc1CN1CCN(S(=O)(=O)CC)CC1,-4%,>57
CCOc1ccc2nc(NC(=O)CSc3nc4c(c(=O)n(C)c(=O)n4C)n3C(C)C)sc2c1,-15%,>57

# Structural class, the entries above with two or more sulfur atoms.
SMILES,Anthrax LT inh,Prx2 Sm inh
CC(C)(C)NS(=O)(=O)c1ccc2nc(NC(=O)Cc3cccs3)sc2c1,?,>57
CSC1=N/C(=C\c2ccccc2F)C(=O)S1,-12%,>57
O=C(CSc1ncnc2c1oc1ccccc12)c1cccs1,?,>57
O=C(NCCN1CCN(C(=O)c2cccs2)CC1)c1cccs1,6%,>57
CCCS(=O)(=O)c1c(S(=O)(=O)CCC)c2cnccn2c1C(=O)c1ccc(F)cc1,-4%,>57
CCOc1ccc2nc(N3CCC(C(=O)Nc4nnc(CC)s4)CC3)sc2c1,?,>57
O=C1Nc2ccc(S(=O)(=O)N3CCCC3)c3ccc(S(=O)(=O)N4CCCC4)c1c23,-8%,>57
Cc1nnc(NC(=O)CSc2cn(CCNC(=O)c3ccccc3)c3ccccc23)s1,3%,>57
CCOc1ccc2nc(NC(=O)CSc3nc4c(c(=O)n(C)c(=O)n4C)n3C(C)C)sc2c1,-15%,>57

# Remaining list, next part:
SMILES,Anthrax LT inh,Prx2 Sm inh
COc1cc(O)c2c(O)c3c(c4c2c1[C@@]1(C4)C(C)=CCCC1(C)C)[C@H](O)[C@@]1(O)CC(=O)C(C(N)=O)=C(O)[C@]1(O)C3=O,?,>57
CC1CCN(S(=O)(=O)c2ccc(-c3nnc(SCc4cccnc4)o3)cc2)CC1,2%,>57
CCn1c(=N)c(S(=O)(=O)c2ccc(F)cc2)cc2c(=O)n3ccccc3nc21,32%,>57
Cc1ccc(C(C)C)cc1C(=O)CC1(O)C(=O)N(C)c2ccccc21 (configuration not stated),/,>57
Cc1cccc(N(CC(=O)NCc2ccc3c(c2)OCO3)C(=O)CCC(=O)Nc2ccccn2)c1,-4%,>57
COc1ccc(C2NC(=O)NC(C)=C2C(=O)Nc2cccc(C)c2C)cc1 (configuration not stated),-2%,>57
Clc1cccc(Cl)c1COc1ccncc1,?,>57
CC1CCN(c2oc(Cc3cccc4ccccc34)nc2C#N)CC1,?,>57
COC(=O)[C@@H]1[C@@H](O)[C@]2(O)c3ccccc3O[C@]2(c2ccccc2)[C@H]1c1ccccc1,4%[8 µM],/
O=C(CSc1ncn[nH]1)NCCCc1ccccc1,-8%,>57
COc1cc2c(C(=O)NC3CCCCCC3)cn(C)c(=O)c2cc1OC,-1%,>57
CC1Cc2ccccc2N1Cc1nc2scc(-c3cccs3)c2c(=O)[nH]1 (configuration not stated),-5%,>57
CC(C)(C)c1ccc(NS(=O)(=O)c2ccc(N)cc2)cc1,-6%[8 µM],>57
COC(=O)CN(c1nc(C)cc(OC)n1)S(=O)(=O)c1ccc(C)cc1,-4%,>57
Cc1nc2ncnn2c(C)c1CCC(=O)N1CCN(c2ccccn2)CC1,-12%,>57
Nc1cc(=O)[nH]c(SCc2nc3ccccc3n2Cc2ccccc2)n1,?,/
CC(=O)Nc1ccc(S(=O)(=O)NCc2cn3c(C)csc3n2)cc1,-1%,>57
O=C(NCc1ccccc1F)C1CCN(C(=O)NCc2ccccc2)CC1,17%,>57
Cc1nc2cnc(N3CCOCC3)nc2n(Cc2cccs2)c1=O,11%,>57
CCOC(=O)N1CCN(C(=O)CSc2nnc(Cc3cccn3C)n2CCc2ccccc2)CC1,?,>57
COc1cc(OC)c(NC(=O)c2ccoc2C)cc1Cl,-8%,>57
COc1ccc(CNC(=O)C2CCN(S(=O)(=O)c3ccc(-c4nn[nH]n4)cc3)CC2)cc1,-2%,>57
O=c1ccc2c(OCCCCc3ccccc3)c3ccoc3cc2o1,?,>57
COc1ccc(NC(=O)N2CC[C@@]3(CCCNC3)C2)cc1,-10%,>57
CCCCOCCCNC(=O)c1cccs1,-10%,/
O=S(=O)(c1ccc(Br)s1)N1CCc2ccccc2C1,?,>57
COCCNc1ncnc2ccc(-c3cccc(OC)c3)cc12,-1%,>57
COc1cccc(C(=O)NCC2CCCO2)c1 (configuration not stated),-1%,/
CC(C)C(=O)Nc1cccc(C(=O)NCCc2ccc(S(N)(=O)=O)cc2)c1,9%,>57
CC1(C)CC(=O)C(C=Nc2ccc3c(c2)OCO3)=C(O)C1,1%,/
